Bioassay records deposited in PubChem BioAssay by ICCB-Longwood Screening Facility, Harvard Medical School.
GIV-Gai inh = inhibitors of GIV GBA-motif binding to rat Galpha-i3. P08753. Galpha-i3/FITC-GIV peptide fluorescence polarization, 90 min; hits give low values; scaled: aluminum fluoride 0%, vehicle 100%. percent of control (FP), % (no concentration beside the values). 210,000 compounds, 0.42% hits;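 active = replicate mean at 85% of control or lower, very high polarization wells dropped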;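 also: wells of about 15 µL received 100 nL stock; the first replicate is given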
Target sequence (P08753 whole entry, looked up): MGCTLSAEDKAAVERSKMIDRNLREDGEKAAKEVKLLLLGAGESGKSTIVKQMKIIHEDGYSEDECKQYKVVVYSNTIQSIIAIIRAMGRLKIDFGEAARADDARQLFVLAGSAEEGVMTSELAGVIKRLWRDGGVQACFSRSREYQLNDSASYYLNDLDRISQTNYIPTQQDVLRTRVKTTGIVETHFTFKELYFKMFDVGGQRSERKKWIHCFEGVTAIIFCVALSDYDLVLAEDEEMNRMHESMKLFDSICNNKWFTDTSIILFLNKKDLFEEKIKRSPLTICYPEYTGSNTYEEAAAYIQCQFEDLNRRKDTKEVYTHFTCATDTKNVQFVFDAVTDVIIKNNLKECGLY
Sa growth inh = blocks Staphylococcus aureus growth | S. aureus RN4220 growth, OD600, 20 h, 42 °C; hits give low values | 170,000 compounds, 0.53% hits | relative growth, % (no concentration beside the values) | AID 720641;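 active = growth at 42 °C up to 50% and 20 or more points under that at 30 °C, or under 10% at both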;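 also: 300 nL library stock went into each well; scaled to the means of positive and negative controls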
HCMV UL50-53 inh = cytomegalovirus nuclear egress complex inhibition; HTRF UL50-UL53 interaction, normalized percent inhibition; inhibition, % (concentration not given with the values); 190,000 compounds, 0.15% hits;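 active = both replicates at 50% or more, plus weaker picks with an unusually low signal ratio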;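 also: stock transfer was 100 nL into about 20 µL; 0% = negative control wells and 100% = wells with untagged competitor protein; inactives centre near -12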
Sa growth inh second temp = further read-out of Sa growth inh, marked with its call; relative growth, %; measured here: growth at 30 °C;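 optical density after 20 h as mean of two plates; 100% = untreated growth and lower means inhibition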
An asterisk follows results filed as active; / = no result given; & = joins results of further samples. Compounds were not picked by outcome; 0.8% or so of the library scored in one or more.

SMILES	GIV-Gai inh	Sa growth inh	Sa growth inh second temp	HCMV UL50-53 inh
CCC[C@@H]1C[C@@H](C(=O)N[C@@H]([C@H]2O[C@H](SC)[C@H](O)[C@@H](O)[C@H]2O)[C@@H](C)O)N(C)C1	112	0.0*	-1.0*	-30
COc1ccc(-c2noc(-c3cnn4c(C)c(Cc5ccccc5C)c(C)nc34)n2)c(OC)c1	126	/	/	-4
Cc1ccc(NC(=O)C2COc3ccccc3O2)cc1C (stereo unspecified)	106	/	/	-18
CCCCOc1ccc(C(=O)NCCc2csc3nc(-c4ccccc4F)nn23)cc1	99	99	100	/
CCOc1ccc(Nc2c3c(nc4nncn24)CCC3)cc1	98	104	81	-17
Cc1ccc(C2=NN(CCC(=O)NCCc3cccc(C)c3)C(=O)CC2)cc1	110	89	103	/
COc1ccc(C2CC(=O)c3cnc(Nc4ccccc4OC)nc3C2)cc1 (stereo unspecified)	99	83	83	/
CCOC(=O)c1cccc(NC(c2nnc(-c3ccccc3)o2)c2ccccc2F)c1 (stereo unspecified)	95	87	89	/
COCc1cc(=O)[nH]c(Sc2c(-c3ccccc3)c3ccc(Cl)cc3[nH]c2=O)n1	99	84	86	/
COC(=O)CSc1cc(C(F)(F)F)nc2cc(C(C)(C)C)nn12	103	88	91	3
CCn1c(CCNC(=O)c2cccs2)nnc1SCc1ccc(Cl)c(Cl)c1	98	110	99	-5
Cc1nnc(Nc2ccc(S(=O)(=O)Nc3nccs3)cc2)c2ccccc12	102	/	/	-27
Cc1cccc(N2C(=O)CS(=O)(=O)C23C(=O)N(Cc2c(F)cccc2Cl)c2ccccc23)c1 (stereo unspecified)	101	100	88	/
c1cc(CNc2ccc(N3CCCC3)cc2)ccn1	104	93	38	-68
O=C(CSc1ccc(-c2ccncc2)nn1)NCC1CCCO1 (stereo unspecified)	103	118	83	/
CCC(=O)N1CCc2cc(CNS(=O)(=O)c3cc(OC)ccc3OC)ccc21	105	101	101	/
CCc1nn(CC(=O)NCCc2ccc(OC)cc2OC)c(=O)c2cc3c(OC)cccc3n12	99	90	91	0
O=C1CC2(CCCCC2)Oc2ccc(O)cc21	101	95	106	-30
CC(C)Sc1nc2c(cnn2-c2ccccc2)c(=O)[nH]1	98	95	93	3&5
Cc1cc(C)n2nc(NCc3ccc(F)cc3)nc2n1	102	/	/	-28
CCCc1cc(=O)[nH]c(SC(C)C(=O)c2ccccc2)n1 (stereo unspecified)	/	101	97	-19
COC(=O)CSc1nc(-c2ccccc2)cc(C)c1C#N	103	110	93	5
CC(C)N(Cc1ccccc1)C(=O)c1cccc(N2C(=O)CCS2(=O)=O)c1	108	/	/	-7
Cc1csc2nc(COC(=O)c3ccccc3NC(=O)c3ccc(C(C)(C)C)cc3)cc(=O)n12	102	66	89	/
N#CC1=C(N)N2CCSC2=NC1(C(F)(F)F)C(F)(F)F	105	111	66	/

Ordered by length of the SMILES (smallest number first): some entries from above
SMILES	GIV-Gai inh	Sa growth inh	Sa growth inh second temp	HCMV UL50-53 inh
O=C(CSc1ccc(-c2ccncc2)nn1)NCC1CCCO1 (stereo unspecified)	103	118	83	/
COC(=O)CSc1cc(C(F)(F)F)nc2cc(C(C)(C)C)nn12	103	88	91	3
CCn1c(CCNC(=O)c2cccs2)nnc1SCc1ccc(Cl)c(Cl)c1	98	110	99	-5
CCC(=O)N1CCc2cc(CNS(=O)(=O)c3cc(OC)ccc3OC)ccc21	105	101	101	/
CCc1nn(CC(=O)NCCc2ccc(OC)cc2OC)c(=O)c2cc3c(OC)cccc3n12	99	90	91	0

New compounds follow.
SMILES	GIV-Gai inh	Sa growth inh	Sa growth inh second temp	HCMV UL50-53 inh
Cc1cccc(NC(=O)c2cnc3ccccn3c2=O)c1C	106	/	/	-29
Cc1ccc2oc(C(=O)N3CCC(CCN4CCCC4)CC3)cc(=O)c2c1	98	/	/	-17
O=C(Cn1[nH]c(=O)c2ccccc2c1=O)NCCCSc1ccc(F)cc1	/	95	83	-15
COc1ccc(-c2csc(C)n2)cc1OC	/	77	95	2
COc1ccc(Cn2c(SCc3ccc(C(=O)NCc4cccs4)cc3)nc3cccnc32)cc1	102	118	83	-24
Cc1ccc(-c2nc3ccccc3[nH]2)cc1N	100	89	80	-7
CCOc1ccc(-c2cc(NC(=O)c3c(F)cccc3F)c(C(=O)OC)s2)cc1	104	111	97	3
CCCCCC(=O)N1CCN(CCn2c(CC)c3c(=O)n(-c4nc5ccccc5s4)[nH]c3cc2=O)CC1	96	106	68	-5
Cc1ccc(NC(=O)CCS(=O)(=O)c2ccc3nc(C)sc3c2)cc1	110	95	89	/
Cc1ccc(-n2nc(C)c3c(C)c(CCC(=O)NC(C)c4ccccc4)c(C)nc32)cc1 (stereo unspecified)	101	96	92	-21
CSc1nc(NC(=O)NS(=O)(=O)c2ccccc2C(F)(F)F)nc(-c2ccccn2)n1	102	110	88	-4
CC(C)n1nnc2c(=O)oc3ccccc3c21	99	104	85	/
CCn1c(=O)c(-c2noc(C(=O)NCc3ccc(F)cc3)n2)nn(-c2ccccc2)c1=O	109	/	/	-39
COc1ccc(C2SCC(=O)N2CCCN(C)C)cc1OC (stereo unspecified)	99	88	86	/
CCCC(=O)NCc1cn2cccc(C)c2n1	103	118	101	12
Cn1c(=O)c2sccc2n2c(SCc3cccc(F)c3)nnc12	103	/	/	9
CCC(C)NC(=O)c1ccc2nc(CCc3ccccc3)oc2c1 (stereo unspecified)	96	117	92	/
O=C(CSc1nc(-c2ccccc2)cc(=O)[nH]1)NC1CCCC1	103	99	94	-6
COc1cccc(-c2cc(C(=O)NCCc3ccc(C)cc3)[nH]n2)c1	105	103	100	/
CC(C)(C)c1ccc(S(=O)(=O)c2cn(CC(=O)Nc3ccccc3)c3ccccc3c2=O)cc1	106	104	92	-1
CN(C)S(=O)(=O)c1ccc(Cl)c(C(=O)OCC(N)=O)c1	/	91	95	-5
CC(C)CC(NS(C)(=O)=O)C(=O)O (stereo unspecified)	/	97	92	-15
Cc1ccccc1CN1C(=O)c2ccccc2S(=O)c2ccc(C(=O)NCc3ccccc3)cc21 (stereo unspecified)	103	125	96	/
O=C(NCCN1CCOCC1)C1=Cc2ccccc2OC1	104	/	/	-36
CN(C)S(=O)(=O)c1ccc2c(c1)c(=O)c(C(=O)N1CCC(Cc3ccccc3)CC1)cn2C	103	/	/	-36

Next compounds follow:
SMILES	GIV-Gai inh	Sa growth inh	Sa growth inh second temp	HCMV UL50-53 inh
O=C(c1cccc(S(=O)(=O)NC2CCCCCC2)c1)N1CCCc2ccccc21	103	90	100	/
COc1cc(C2C(C#N)=C(SCC(N)=O)NC3=C2C(=O)CCC3)ccc1O (stereo unspecified)	98	86	77	-82
CCC(Sc1nc2ncccc2o1)C(=O)Nc1ccc(OC)c(Cl)c1 (stereo unspecified)	104	103	91	-31
COc1ccccc1CNC(=O)CCCn1c(=O)c2ccccc2n(CC(=O)Nc2c(C)cc(C)cc2C)c1=O	109	98	117	34
CC(C)n1c(C(F)(F)F)nc2cc(C(=O)Nc3ccc(Cl)cc3)ccc21	102	103	87	-17
COC(=O)N(C)c1ccc(C(O)(C(F)(F)F)C(F)(F)F)cc1	102	90	78	/
Cc1oc2ccc(O)c(CN3CCCC(C)C3)c2c1C(=O)Nc1ccccc1 (stereo unspecified)	105	111	83	-9
CN(C)/C=C/C=C1C(=O)CCCC1=O	108	91	69	/
O=C(NCCCn1ccnc1)c1cc(=O)c2ccccc2o1	/	89	83	-64
Cc1ccc(NC(=O)C2CCC(C)(C(=O)NN)C2(C)C)cc1 (stereo unspecified)	102	104	96	0
Cc1cc(NCCCN2CCOCC2)n2nc(C(F)(F)F)c(-c3ccc(F)cc3)c2n1	101	/	/	-19
CCOC(=O)c1ccc(N=c2oc3ccccc3cc2C(=O)Nc2ccc(F)cc2)cc1	104	/	/	-6
COc1ccc(NC(=O)c2ccccc2-c2nc(-c3ccccc3)no2)c(OC)c1	93	/	/	-14
CN1CCC(NC(=O)c2cccc(Oc3ccccc3)c2)CC1	106	110	104	-18
O=C(O)c1cc(N2C(=O)C3CC=CCC3C2=O)ccc1NCc1cccnc1 (stereo unspecified)	92	109	113	2
C/C(=N\O)c1c(O)c2ccccc2n(C)c1=O	106	119	84	-14
CCCn1c(C(O)c2cc(OC)c(OC)c(OC)c2)nc2ccccc21 (stereo unspecified)	93	74	102	-40
Cc1cc(=O)[nH]c2nnc(SCc3ccc(F)cc3)n12	94	105	89	/
O=C(COc1ccccc1)NCCn1c(-c2ccncc2)nc2cccnc21	100	/	/	-4
CC(=O)N1CCc2c(sc3c2c(=O)n(Cc2ccccc2)c(=O)n3Cc2ccc(C)cc2)C1	97	115	83	-34
CCOC(=O)c1sc2nc(CN(C)Cc3nc4ccccc4c(=O)[nH]3)[nH]c(=O)c2c1C	/	98	102	9
Cc1ccc(NS(=O)(=O)c2cn(C)c(C)n2)cc1Cl	106	/	/	-7
CC(C)c1ccc(NC(=O)CSC2=Nc3ccccc3C3=NC(CC(=O)NCc4cccs4)C(=O)N23)cc1 (stereo unspecified)	101	106	93	/
Cc1ccc(C)c(C(=O)CCC(=O)Nc2ccc(N3CCN(C)CC3)cc2C)c1	/	83	95	6
COc1ccnc2c1c(=O)n(CC(=O)Nc1ccccc1)c(=O)n2C	102	/	/	0

5 compounds already listed, arranged by their value in Sa growth inh, falling.
canonical_smiles | Sa growth inh
CN1CCC(NC(=O)c2cccc(Oc3ccccc3)c2)CC1 | 110
CCC(Sc1nc2ncccc2o1)C(=O)Nc1ccc(OC)c(Cl)c1 (stereo unspecified) | 103
COc1ccccc1CNC(=O)CCCn1c(=O)c2ccccc2n(CC(=O)Nc2c(C)cc(C)cc2C)c1=O | 98
CN(C)/C=C/C=C1C(=O)CCCC1=O | 91
COc1cc(C2C(C#N)=C(SCC(N)=O)NC3=C2C(=O)CCC3)ccc1O (stereo unspecified) | 86

Rewritten in CSV form: entries from further up.
Compound,GIV-Gai inh,Sa growth inh,Sa growth inh second temp,HCMV UL50-53 inh
CCC(Sc1nc2ncccc2o1)C(=O)Nc1ccc(OC)c(Cl)c1 (stereo unspecified),104,103,91,-31
COc1ccccc1CNC(=O)CCCn1c(=O)c2ccccc2n(CC(=O)Nc2c(C)cc(C)cc2C)c1=O,109,98,117,34

Next section:
SMILES	GIV-Gai inh	Sa growth inh	Sa growth inh second temp	HCMV UL50-53 inh
Cc1cc(C)cc(NC(=O)CSc2nc(=O)n(Cc3ccccn3)c3c2CCC3)c1	103	143	84	/
CC(C)(C)S(=O)(=O)/C(C#N)=C/c1sccc1C1OCCO1	109	89	94	-79
CCOC(=O)c1cc(NC(=O)CSCC(=O)O)ccc1N1CCCCC1	107	102	96	-17
O=c1cc(-c2ccccc2)c2ccc3c(c2o1)CN(Cc1cccc(Cl)c1)CO3	100	114	83	-84
CCOc1ccc(NC(=O)c2sc3nc4n(c(=O)c3c2C)CCC4)cc1	102	120	98	-10
Cc1cccc(NCc2nc3ccccc3n2CCOc2ccccc2C)c1	107	105	99	-28
CCCOC(=O)C(C)Oc1ccc2c3c(c(=O)oc2c1)CCC3 (stereo unspecified)	106	96	79	-29
CS(=O)(=O)c1ncc(Cl)c(C(=O)N2CCN(c3cccc(Cl)c3)CC2)n1	111	64	0	13
C=CCn1ccn(-c2cccc3ccccc23)c(=O)c1=O	101	115	99	4
O=C(NCCCN1CCCC1)c1cnn(-c2ccccc2)c1-n1cccc1	100	119	88	/
CNC(=O)c1ccc(Cn2c(=O)c3cc(OC)c(OC)cc3n(CC(=O)NC(C)C)c2=O)cc1	104	/	/	-18
COc1cc(C(=O)Oc2ccc3c(OC)c4ccoc4nc3c2OC)cc(OC)c1OC	100	/	/	-13
O=C(NCCc1ccccc1)c1cnn2c(C(F)(F)F)cc(-c3ccccc3)nc12	100	/	/	-28
O=C(Nc1cccnc1)c1ccc(COc2ccccc2Cl)o1	104	93	86	-25
COc1ccc(NC(=O)CN(C)C(=O)c2ccc3c(c2)nnn3C)cc1	100	/	/	-17
NS(=O)(=O)c1cc(C(=O)Nc2ccccc2N2CCOCC2)ccc1Cl	/	114	101	-8
CC1=C(C)C(=O)c2ccccc2C1=O	109	18	2	-172
CC(C)c1ccc(S(=O)(=O)N2CCC(C(=O)Nc3nnc(-c4ccccc4)o3)CC2)cc1	/	79	69	-30
O=S(=O)(Nc1cc(F)ccc1F)c1ccc(-n2cccn2)cc1	98	89	92	/
C=CCc1c(C)nc(N2CCSCC2)[nH]c1=O	100	107	96	2
Cc1ccc2nc(COc3ccccc3NC(=O)Nc3ccc(F)c(Cl)c3)cc(=O)n2c1	102	12	19	/
